Screens (PubChem)
AF4-AF9 inh: inhibitors of AF4 peptide binding to AF9, primary screen, biochemical, AlphaScreen, biotin-AF4 peptide, FLAG-AF9, single point | Protein AF-9 (Homo sapiens), P42568 | inhibition, % at 10 µM | 350,000 tested, 0.47% active | AID 651704, 2012;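 active means every replicate reaching a set inhibition limit, whatever the replicate mean, cut at about 25% in these data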;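 further: 0% = plate neutral control median and 100% = total signal loss; the record names both 10 and 1 µM as test concentration; the first replicate is given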
Target sequence (P42568 whole entry, looked up): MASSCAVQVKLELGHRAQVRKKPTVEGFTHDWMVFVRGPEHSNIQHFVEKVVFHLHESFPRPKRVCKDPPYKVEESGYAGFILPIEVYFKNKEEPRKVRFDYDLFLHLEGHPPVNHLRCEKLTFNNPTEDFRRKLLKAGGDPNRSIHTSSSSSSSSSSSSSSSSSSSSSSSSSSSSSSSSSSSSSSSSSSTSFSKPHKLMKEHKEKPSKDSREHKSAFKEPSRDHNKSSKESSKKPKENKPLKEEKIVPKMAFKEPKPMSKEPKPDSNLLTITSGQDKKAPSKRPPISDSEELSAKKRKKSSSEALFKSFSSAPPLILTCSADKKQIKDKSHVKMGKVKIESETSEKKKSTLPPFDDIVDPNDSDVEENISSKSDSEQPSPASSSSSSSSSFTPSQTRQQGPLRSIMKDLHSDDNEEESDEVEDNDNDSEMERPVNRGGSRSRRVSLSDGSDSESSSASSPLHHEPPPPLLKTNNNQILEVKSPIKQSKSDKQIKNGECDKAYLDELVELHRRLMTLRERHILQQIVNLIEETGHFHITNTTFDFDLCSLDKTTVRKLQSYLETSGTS
rRNA inh HTS: reduced GFP signal of wild-type E. coli, primary screen, bacterial rRNA inhibitor project, GFP/RFP fluorescence, OD600, single point. E. coli WT GFP vs humanized-ribosome RFP mutants, 24 h; hits give low values; DMSO median 0, no signal -100. GFP signal change (wild-type ribosome), % (test concentration not listed). 350,000 tested, 1.6% active;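 active means significant combined selectivity score with lowered wild-type GFP, culture density cut under 30%, mutant RFP and density less affected; inactive means any of these conditions unmet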; further: one replicate is shown; some compounds called inactive have numbers as strong as hits
FGF22 binding: binders of human FGF22 protein, primary screen, FGF22 synaptogenesis inhibitor project, biophysical, thermal shift, single point. Fibroblast growth factor 22 (Homo sapiens), Q9HCT0. recombinant FGF22 thermal shift, SYPRO orange fluorescence; percent of sucrose octasulfate shift, DMSO zero. calls only at 9.99 µM. 340,000 tested, 1.5% active;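 active means melting point raised past a set limit in the mean and every replicate; three in four hits are not shown here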
Target sequence (Q9HCT0 whole entry, looked up): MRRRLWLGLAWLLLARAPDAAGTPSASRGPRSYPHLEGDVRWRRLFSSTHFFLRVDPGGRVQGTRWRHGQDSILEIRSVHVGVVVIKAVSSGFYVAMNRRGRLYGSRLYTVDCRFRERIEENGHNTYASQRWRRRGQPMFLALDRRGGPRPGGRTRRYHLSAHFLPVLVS
rRNA inh HTS OD600: also measured in rRNA inh HTS; calls as there; OD600 change, %; measured here: OD600 growth;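 optical density of the mix in the first replicate; 0 = DMSO median and -100 = no signal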
rRNA inh HTS RFP: also measured in rRNA inh HTS; calls as there; RFP signal change, %; measured here: RFP humanized mutant strains;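 first replicate; 0 = DMSO median and -100 = no signal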
The depositor's hits bear a star; i = inactive; + = active, no number; & = joins results of further samples.

Results follow in this order: AF4-AF9 inh	rRNA inh HTS	rRNA inh HTS OD600	rRNA inh HTS RFP	FGF22 binding
- O=C(C[C@H]1CC[C@H](NC(=O)Nc2cc(F)ccc2F)[C@@H](CO)O1)Nc1ccc(-c2ccccc2)cc1
 : -16	-7	-2	-3.5	+
- CCCC(=O)Nc1ccc2c(c1)OC[C@H](C)N(C)C[C@@H](C)[C@H](OC)CN(C)C2=O
 : -0.3	0	5	-2.2	i
- Cc1ccc(S(=O)(=O)N[C@@H]2CC[C@@H](CCNC(=O)Cc3ccccn3)O[C@H]2CO)cc1
 : 0.5	3	0	-1.3	i
- C[C@H](CO)N1C[C@H](C)[C@@H](CN(C)C(=O)c2ccncc2)OCc2cn(nn2)CCCC1=O
 : -15&0.9&-4.4	1&5	1&16	-2.9&1.0	i
- CCCCCCCCN1C(=O)[C@H](CC(=O)N2CCOCC2)C[C@@]2(C(=O)OCC)CCCC=C12
 : -5.1	-37	-57	20	i
- N#C[C@@H]1[C@H](c2ccc(C3=CCCC3)cc2)[C@H](CO)N1S(=O)(=O)c1cccc(F)c1
 : -0.6	-4	4	2.2	i
- Nc1cc2c(cc1Br)[nH]c(=O)c1ccccc12
 : 3.2	-13	-1	7.0	i
- COCC(=O)N1[C@H](C#N)[C@H](c2ccccc2C2=CCCC2)[C@H]1CO
 : -7.9	1	25	0.4	i
- C/C=C/c1ccc2c(c1)O[C@@H](CN(C)C(=O)Nc1ccccc1)[C@H](C)CN([C@@H](C)CO)S2(=O)=O
 : 0.7	-5	-9	-2.4	i
- O=C(C1CCCC1)N1C[C@@H]2[C@H](c3ccccc31)[C@H](CO)N2C(=O)Nc1cccc(F)c1
 : -1.3	-2	-4	1.9	i
- CO[C@@H]1CN(C)C(=O)c2ccc(NC(=O)c3nc4ccccc4s3)cc2OC[C@H](C)N(Cc2ccncc2)C[C@H]1C
 : 5.2	-10	-7	2.6	i
- COCC(=O)N1CC2(C1)[C@@H](c1ccccc1)[C@@H](CO)N2C(=O)c1cccnc1
 : -1.1	2	-10	-0.4	i
- COc1ccc(NC(=O)N(C)C[C@H]2OCc3ccccc3-c3c(n(C)c4ccccc34)C(=O)N([C@@H](C)CO)C[C@H]2C)c(OC)c1
 : 2.2	-1	-7	5.9	i
- COc1ccccc1-c1ccc2c(c1)O[C@H](CN(C)C(C)=O)[C@@H](C)CN([C@@H](C)CO)S2(=O)=O
 : -5.7	2	-7	1.0	i
- COC(=O)C[C@H]1C[C@H]2c3cc(NC(=O)C4CCOCC4)ccc3O[C@H]2[C@H](CO)O1
 : 0.9&-9.0	13&5	17&7	-0.8&-0.5	i

Complete entries from above.
Entry for COCC(=O)N1CC2(C1)[C@@H](c1ccccc1)[C@@H](CO)N2C(=O)c1cccnc1 → AF4-AF9 inh: -1.1; rRNA inh HTS: 2; rRNA inh HTS OD600: -10; rRNA inh HTS RFP: -0.4; FGF22 binding: i
Entry for CO[C@@H]1CN(C)C(=O)c2ccc(NC(=O)c3nc4ccccc4s3)cc2OC[C@H](C)N(Cc2ccncc2)C[C@H]1C → AF4-AF9 inh: 5.2; rRNA inh HTS: -10; rRNA inh HTS OD600: -7; rRNA inh HTS RFP: 2.6; FGF22 binding: i

Continued.
Results follow in this order: AF4-AF9 inh	rRNA inh HTS	rRNA inh HTS OD600	rRNA inh HTS RFP	FGF22 binding
- Cc1ccccc1-c1ccc2c(c1)O[C@H](CN(C)Cc1ccc(C(=O)O)cc1)[C@@H](C)CN([C@@H](C)CO)S2(=O)=O
 : -0.5	-10	-16	-2.2	i
- C[C@@H]1CN([C@H](C)CO)C(=O)c2cc(C#Cc3ccccc3)cnc2O[C@H]1CN(C)Cc1ccccn1
 : 4.7	-1	-5	2.0	i
- CC(C)CC#Cc1ccc2c(c1)O[C@@H](CN(C)C(=O)Cc1ccccn1)[C@@H](C)CN([C@@H](C)CO)S2(=O)=O
 : 11	-1	-6	9.2	i
- C[C@@H]1CCCCO[C@@H](CN(C)S(=O)(=O)c2cn(C)cn2)[C@@H](C)CN([C@@H](C)CO)C(=O)c2cc(NS(=O)(=O)c3cccs3)ccc2O1
 : 7.5	1	1	-4.1	i
- CCC(=O)Nc1ccc2c(c1)OC[C@H](C)N(Cc1ccccc1OC)C[C@@H](C)[C@@H](OC)CN(C)C2=O
 : -1.6	0	4	2.1	i
- O=C(c1ccccc1)N1CC2(C1)[C@H](c1ccccc1)[C@@H](CO)N2C(=O)CC1CC1
 : -1.9	1	9	-0.1	i
- C[C@@H]1CN([C@@H](C)CO)C(=O)c2cc(NC(=O)Nc3ccc4c(c3)OCO4)ccc2O[C@@H](C)CCCCO[C@H]1CN(C)C
 : 13	-2	12	-4.6	i
- O=C(C[C@@H]1CC[C@H](NC(=O)c2ccccn2)[C@H](CO)O1)NCc1cccc(F)c1
 : 1.1	4	8	-1.4	i
- O=C(C[C@@H]1C[C@H]2c3cc(NS(=O)(=O)c4ccc(F)cc4)ccc3O[C@H]2[C@@H](CO)O1)NCc1ccc(Cl)cc1
 : 2.7	-10	-40	11	i
- COc1cccc(-c2ccc3n(c2=O)C[C@H]2[C@H](CO)[C@@H](C(=O)NCCN4CCCCC4)N(C)[C@@H]32)c1
 : 1.5	4	7	1.0	i
- C[C@H](CO)N1C[C@H](C)[C@@H](CN(C)Cc2ccncc2)Oc2ccc(NC(=O)Cc3cn(C)c4ccccc34)cc2CC1=O
 : 7.8	-5	-15	1.1	i
- COC(=O)[C@H](Cc1ccccc1)NC(=O)/C=C/[C@H]1O[C@@H](n2ccc(=O)[nH]c2=O)[C@H](O)[C@@H]1O
 : 0.0	12	5	-3.0	i
- O=Cc1ccc(-c2cccs2)s1
 : 0.7	10	16	3.7	i
- C[C@@H]1CN([C@@H](C)CO)C(=O)c2cccc(NC(=O)C3CCOCC3)c2O[C@@H]1CN(C)C
 : -0.8	6	12	-2.7	i
- C/C=C/c1ccc([C@H]2[C@@H](CO)N(C(=O)C3CC3)C23CN(C(=O)NC(C)C)C3)cc1
 : -12	1	-6	2.5	i
- CC(=NNS(=O)(=O)c1ccc(C)cc1)c1ccncc1
 : 2.0	11	9	2.4	i
- Cc1cccc(C)c1-n1nnnc1C(c1ccnc2ccccc12)N1CCOCC1 (centres undefined)
 : -0.1	1	-8	2.3	i
- O=C(NC1Cc2ccccc2C1)[C@@H]1[C@@H](CO)[C@@H]2Cn3c(ccc(C4=CCCC4)c3=O)[C@H]1N2CC1CC1
 : 1.7	-5	-11	3.4	i
- COc1ccc(S(=O)(=O)N(C)C[C@H]2OCCCC[C@@H](C)Oc3ccc(NC(=O)Nc4ccc(F)cc4)cc3C(=O)N([C@H](C)CO)C[C@@H]2C)cc1
 : -2.3	0	-10	-4.5	i
- C[C@@H]1CCCCO[C@@H](CN(C)S(=O)(=O)c2ccc(F)cc2)[C@H](C)CN([C@@H](C)CO)C(=O)c2cc(NS(=O)(=O)c3cn(C)cn3)ccc2O1
 : -4.2	-2	-2	-1.3	i
- C[C@H]1CN([C@@H](C)CO)C(=O)c2cc(NC(=O)CCN3CCOCC3)ccc2O[C@H]1CN(C)C(=O)Nc1ccccc1
 : -1.6	4	0	-3.8	i
- N#C[C@H]1[C@H](c2ccccc2C2=CCCC2)[C@@H](CO)N1C(=O)Cc1ccncc1
 : -3.0	-6	-16	-1.3	i
- C[C@@H]1CCCCO[C@@H](CN(C)C(=O)C2CCCCC2)[C@@H](C)CN([C@H](C)CO)C(=O)c2cc(N(C)C)ccc2O1
 : 0.0	1	4	-0.4	i
- Cc1noc(C)c1NC(=O)Nc1ccc2c(c1)C(=O)N(C)[C@H]1CC[C@H](CC(=O)N[C@@H]3CCN(Cc4ccccc4)C3)O[C@@H]1CO2
 : 7.1	3	-2	0.0	+
- CC(C)N1CC2(CC(c3ccccc3C(F)(F)F)=NO2)CN1C(=O)c1ccc(C(C)(C)C)cc1 (centres undefined)
 : -2.4	7	3	-2.0	i
- COc1ccc2nc(-c3ccccc3)nc(SC)c2c1
 : -2.9	19	22	-0.7	i
- CN1CCN(C(=O)C[C@H]2CC[C@@H]3[C@H](COc4ccc(NC(=O)C5CCCCC5)cc4C(=O)N3C)O2)CC1
 : -41	7	-3	1.8	i
- Cc1cccc(C)c1NC(=O)c1cc(S(=O)(=O)N2CCC3(CC2)OCCO3)ccc1F
 : 1.4	4	6	-2.7	i
- C/C=C/c1ccc([C@@H]2[C@@H](CN(CC)C(=O)CC)N(C(C)=O)[C@H]2CO)cc1
 : 0.4	-1	-4	-0.6	i
- C[C@H](CO)N1C[C@H](C)[C@H](CN(C)C(=O)NC2CCCCC2)Oc2ccc(NS(=O)(=O)c3ccccc3)cc2C1=O
 : -2.1	-2	0	0.1	i
- C=CCN1CCC(=O)C(C(=O)OCC)=C1C(=O)OCC
 : -3.1	21	12	3.4	i
- C[C@@H]1CN([C@@H](C)CO)C(=O)Cc2cc(NC(=O)C3CCCCC3)ccc2O[C@H]1CN(C)Cc1ccc(C(=O)O)cc1
 : -1.1	3	7	0.4	i
- CC1(C)CC=CC(COC(=O)c2ccccc2C(=O)O)C1 (centres undefined)
 : -1.2	-7	-13	5.0	i
- Cc1ccccc1-c1cnc2c(c1)C(=O)N([C@@H](C)CO)C[C@H](C)[C@@H](CN(C)C(=O)CN(C)C)O2
 : 0.5	8	8	2.4	i
- CN1CCN(C(=O)C[C@H]2C[C@@H]3c4cc(NS(C)(=O)=O)ccc4O[C@@H]3[C@H](CO)O2)CC1
 : -1.6	4	9	-0.6	i
- CCC(=O)N(C)C[C@@H]1Oc2cc(C#CC3(O)CCCC3)ccc2S(=O)(=O)N([C@@H](C)CO)C[C@@H]1C
 : -1.7	1	4	-3.0	i
- C[C@@H]1CN([C@H](C)CO)C(=O)c2cc(NC(=O)Cc3cn(C)c4ccccc34)ccc2O[C@H]1CN(C)S(=O)(=O)c1ccc(Cl)cc1
 : -12	-2	0	-1.4	i
- O=C(Nc1ccn(CCCNCCN2CCOCC2)c(=O)n1)OCc1ccccc1
 : -0.6	5	16	1.6	i
- C[C@H](NC(=O)C[C@H]1CC[C@@H]2[C@H](COC[C@@H](O)CN2C(=O)Nc2cc(Cl)cc(Cl)c2)O1)c1ccccc1
 : -0.7	-50	-72	-11	i
- C/C=C/c1ccc2c(c1)O[C@H](CN(C)Cc1ccc(C(=O)O)cc1)[C@H](C)CN([C@H](C)CO)S2(=O)=O
 : 4.0	2	-6	-1.1	i
- CCC(=O)N[C@H]1CC[C@H](CCNC(=O)Nc2ccc(C(F)(F)F)cc2)O[C@H]1CO
 : 4.9	-57	-76	-15	i
- O=S(=O)(NC[C@H]1[C@H](c2ccccc2)[C@H](CO)N1CC1CC1)c1ccccc1
 : 0.7	-4	-2	-1.8	i
- C[C@@H]1CCCCO[C@@H](CN(C)S(=O)(=O)c2cn(C)cn2)[C@@H](C)CN([C@H](C)CO)C(=O)c2cc(NC(=O)c3ccccc3)ccc2O1
 : -1.3	3	12	1.3	i
- COc1cccc(NC(=O)N(C)C[C@H]2OCc3ccccc3-c3c(n(C)c4ccccc34)C(=O)N([C@@H](C)CO)C[C@H]2C)c1
 : 3.3	1	-7	2.5	i
- CS(=O)(=O)N1Cc2cc(C(=O)NCC3CC3)nc(-c3cccc(-c4cncnc4)c3)c2[C@H]1CCO
 : -0.1	-2	-6	0.4	i
- CO[C@H]1CN(C)C(=O)c2cc(NC(C)=O)ccc2OC[C@H](C)N(Cc2nccs2)C[C@@H]1C
 : -8.8	0	3	0.1	i
- O=C(C[C@H]1C[C@H]2c3cc(NC(=O)Cc4ccncc4)ccc3O[C@H]2[C@@H](CO)O1)NCc1cccc(F)c1
 : 4.4	3	10	0.0	i
- Cc1cc(C(=O)Nc2cccc3c2O[C@@H](CN(C)C(=O)NC(C)C)[C@H](C)CN([C@@H](C)CO)C3=O)n(C)n1
 : -2.3	-3	-6	-3.0	i
- COc1ccc2c3c([nH]c2c1)[C@@H](CO)N(C(=O)NC1CCCC1)CC31CCN(C(=O)Nc2cccc(F)c2)CC1
 : -3.6	1	-7	0.6	i
- COc1ccc(CNC(=O)C[C@@H]2CC[C@H]3[C@H](COc4ccc(NC(=O)C5CC5)cc4C(=O)N3C)O2)cc1
 : -2.2	1	1	-2.6	i

These rows are one share of the data; count on the stated rates, not on these rows.
